Screening results (PubChem BioAssay)
AID504770: growth inhibitors of E. coli YBA685 in a screen for V. cholerae RctB (chromosome II replication) inhibitors | E. coli YBA685 rctB-dependent plasmid, OD600 growth, 3 h; stronger effect = lower value | z-score (no concentration beside the values) | hit rate 0.27% among 130,000;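 active = z-score under -2 on both plates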;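 also: wells of about 30 µL received 100 nL stock; score is relative to mean and SD of the test wells; the first replicate is given; strong numbers were not always called active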
Ba CapD inh: CapD enzyme inhibition; purified CapD enzyme, fluorescence intensity read-out; stronger effect = lower value; some hits fall short of the stated cut; z-score (no concentration beside the values); hit rate 0.23% among 140,000;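 active = z-score under -4 in either of two replicates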;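 also: stock transfer was 100 nL into about 40 µL; score is relative to mean and spread of the plate; one replicate is shown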
An asterisk follows results filed as active; nt = no result given; & = joins results of further samples.

no.	compound	AID504770	Ba CapD inh
1	COc1ccc(-c2noc(CNS(=O)(=O)c3ccccc3)n2)cc1	-1.8	-0.26
2	CC1CC(C)CN(C(=O)CCCc2c[nH]c3ccccc23)C1 (stereo not drawn)	0.45	0.34
3	Cc1ccc(C)c(S(=O)(=O)N/N=C/c2ccc3c(c2)OCCO3)c1	-0.05	nt
4	FC(F)(F)c1cccc(NC(=S)Nc2ccc(Cl)c(Cl)c2)c1	nt	-0.99
5	Cc1sc2nc3n(c(=O)c2c1C)N=C(c1ccc(F)cc1)CS3	-0.9	-0.24
6	O=C(c1cccc(S(=O)(=O)N2CCc3ccccc3C2)c1)N1CCN(c2ccc(O)cc2)CC1	1	nt
7	N#CC(C(=O)NCCc1ccccc1)c1nc2ccccc2nc1N1CCCCCC1 (stereo not drawn)	1.9	nt
8	CCOC(=O)N1CCN(c2cnn(-c3nc4ccccc4s3)c(=O)c2Cl)CC1	1.1	-0.2
9	NC(=O)C(c1ccccc1)c1ccc(C(=O)c2ccccc2)cc1 (stereo not drawn)	-1.5	-0.39
10	OCC1CCCN2CCCCC12 (stereo not drawn)	nt	-0.76
11	O=C1C2C=NNC2C(=O)N1Cc1ccccc1 (stereo not drawn)	-0.45	0.095
12	NC(=O)COC(=O)c1ccc(-c2ccc(C(=O)OCC(N)=O)s2)s1	-0.25	nt

Additional entries:
no.	compound	AID504770	Ba CapD inh
13	COC(=O)CCC(CCC(=O)OC)(C(=O)OC)C(=O)OC	nt	-0.2
14	NCc1nnc2ccccn12	0.1	nt
15	N#Cc1c2ncnc(-c3ccccc3)c2n2ccccc12	-0.25	0.11
16	O=C(c1ccc(-n2cccn2)cc1)N1CCCCC1c1nc2ccccc2s1 (stereo not drawn)	-0.65	nt
17	Clc1ccc2nnc(Cc3ccccc3)n2n1	-0.85	nt
18	O=C(NCc1cccs1)C1CCN(c2ccc(S(=O)(=O)N3CCOCC3)cc2Cl)CC1	0.2	nt
19	CC1CN(Cn2nc(-c3cccc(S(=O)(=O)N(C)C)c3)n(-c3ccc(F)cc3)c2=S)CC(C)O1 (stereo not drawn)	0.95	nt
20	CCN(CC)c1nc(C)nc2sc(C(=O)N3CCCCC3C)c(C)c12 (stereo not drawn)	nt	-0.64
21	CCOC(=O)C1(C(F)(F)F)N=C(c2ccc(F)cc2)OC(N2CCCCC2)=N1 (stereo not drawn)	nt	-0.27
22	COc1ccc(C2CC(C(F)(F)F)n3ncc(C(=O)N4CCN(c5cccc(Cl)c5)CC4)c3N2)cc1OC (stereo not drawn)	nt	-0.17
23	O=C(NCCCN1CCN(c2nccc(C(F)(F)F)n2)CC1)c1cccs1	nt	0.41
24	S=C1NN(c2ccccc2)C2=C(CCC2)S1	-0.8	-1.6

Arranged by length of the SMILES (rising): 6 of the compounds above
no.	compound	AID504770	Ba CapD inh
14	NCc1nnc2ccccn12	0.1	nt
17	Clc1ccc2nnc(Cc3ccccc3)n2n1	-0.85	nt
24	S=C1NN(c2ccccc2)C2=C(CCC2)S1	-0.8	-1.6
13	COC(=O)CCC(CCC(=O)OC)(C(=O)OC)C(=O)OC	nt	-0.2
21	CCOC(=O)C1(C(F)(F)F)N=C(c2ccc(F)cc2)OC(N2CCCCC2)=N1 (stereo not drawn)	nt	-0.27
22	COc1ccc(C2CC(C(F)(F)F)n3ncc(C(=O)N4CCN(c5cccc(Cl)c5)CC4)c3N2)cc1OC (stereo not drawn)	nt	-0.17

Pulled by compound from the list above, two records:
no.	compound	AID504770	Ba CapD inh
14	NCc1nnc2ccccn12	0.1	nt
21	CCOC(=O)C1(C(F)(F)F)N=C(c2ccc(F)cc2)OC(N2CCCCC2)=N1 (stereo not drawn)	nt	-0.27

Next results follow:
no.	compound	AID504770	Ba CapD inh
25	N#C/C(=C\c1c(F)cccc1Cl)c1ccc([N+](=O)[O-])cc1	nt	-0.56
26	COc1cc(/C=C/C(=O)OCC(=O)Nc2ccc(NC(C)=O)cc2)ccc1O	0.9	nt
27	CC(C)(C)n1cnc2cc(NS(=O)(=O)c3ccccc3)ccc21	-1.1	nt
28	O=C(Nc1ccccc1Sc1ncnc2sc3c(c12)CCCC3)c1ccco1	nt	-0.17
29	O=C(NC1CCN(C(=O)NC2CCCCC2)CC1)c1ccc(F)cc1	1.1	nt
30	O=S(=O)(Nc1ccc(Oc2ccc(Cl)cc2C2CCCCC2)nc1)c1cccc2nonc12	-0.1	-0.39
31	COc1cccc(-c2nnc(SCC(=O)N3CCCCC3C)o2)c1 (stereo not drawn)	-0.65	0.47
32	Nc1ccccc1C(=O)NCCc1c[nH]c2ccccc12	nt	90
33	Cn1cc(CC(=O)N2CCN(c3ccc(Cl)cc3)CC2)c2ccccc21	-0.65	0.12
34	Cc1cccc(N2CC(O)(c3ccc([N+](=O)[O-])cc3)[N+]3=C2SCCC3)c1 (stereo not drawn)	nt	-0.08
35	CCN1C(=O)CC(C(=O)Nc2ccc(Br)cc2)SC1=Nc1cccc(F)c1 (stereo not drawn)	nt	0.21
36	CC1=C(C(=O)Nc2ccccc2C)C(c2ccc(C(C)C)cc2)NC(=O)N1 (stereo not drawn)	nt	-0.32

Next part (2 carried over from the part before).
no.	compound	AID504770	Ba CapD inh
35	CCN1C(=O)CC(C(=O)Nc2ccc(Br)cc2)SC1=Nc1cccc(F)c1 (stereo not drawn)	nt	0.21
36	CC1=C(C(=O)Nc2ccccc2C)C(c2ccc(C(C)C)cc2)NC(=O)N1 (stereo not drawn)	nt	-0.32
37	Cc1ccc(C2CC(=O)NC(SCC(=O)Nc3ccc(Br)cc3)=C2C#N)o1 (stereo not drawn)	nt	0.07
38	Nc1nc(N)c(N)c(=O)[nH]1	nt	1.3
39	C=CCN(Cc1ccc(Cl)s1)c1ncnc2sccc12	-0.45	nt
40	COc1ccc(/C=C\C(=O)Nc2c3c(nn2-c2cccc(Cl)c2)CSC3)cc1OC	0.9	80
41	COc1ccc(OC)c(-n2c(SCC(=O)N3CCc4ccccc43)nc3c(c2=O)SCC3)c1	nt	0.025
42	O=C1c2ccccc2C(=O)N1CCSc1nnc(Cc2cccs2)n1C1CCCCC1	-0.05	nt
43	COc1ccc(C2C(C(=O)Nc3ccc(C(F)(F)F)cc3)c3ccccc3C(=O)N2C)cc1 (stereo not drawn)	nt	15
44	O=C1c2ccccc2C(=O)c2c1n[n+]([O-])n2-c1ccc(F)cc1	0.8	0.23
45	Cc1ccc([N+](=O)[O-])c2c1NC(c1ccc(Br)cc1)C1CC=CC21 (stereo not drawn)	nt	-0.37
46	CC1CCN(S(=O)(=O)N2CCC(C(=O)NCCC3=CCCCC3)CC2)CC1	-0.8	-0.085
47	O=C(O)CNC(=S)N(Cc1cccs1)C1CCCC1	-0.85	-0.78
48	NC(=O)c1ccccc1OCC(=O)N1CCCC1c1ccc2c(c1)OCCCO2 (stereo not drawn)	-0.05	nt

Carrying on.
no.	compound	AID504770	Ba CapD inh
49	C/C(N)=C(/C#N)C(=O)CSc1nnc(N)s1	0.75	nt
50	Cc1ccc2c(c1)-c1ccccc1S(=O)(=O)N2	nt	23
51	Nc1ccc(C(=O)NCc2ccccc2)cc1	-0.9	-0.095
52	O=C(NCc1ccccn1)c1cccc(Cl)c1	nt	-0.14
53	Cc1onc(-c2ccccc2Cl)c1C(=O)NOCCOc1ccccc1	nt	0.71
54	CCCc1[nH]n(-c2nc3ccccc3s2)c(=O)c1C(C)=Nc1cc(Cl)ccc1O	nt	-0.045
55	CCc1c(O)nc(SCC(=O)NCc2ccco2)n(-c2ccccc2)c1=O	0.5	-0.22
56	NC1=NC2=C(CCCC2)C2(CCCCC2)S1	-1	nt
57	CN1CCN(C)C(C(=O)NNC(=O)OCCc2cccc(Cl)c2)C1 (stereo not drawn)	nt	-0.39
58	Cc1ccc2c(c1)C(c1ccccc1)N(C(=O)c1ccc(C)c(C)c1)CC(=O)N2 (stereo not drawn)	nt	-0.2
59	CCCCCOC(=O)C1=C(C)NC(=O)NC1c1cc2c(cc1Br)OCO2 (stereo not drawn)	nt	0.07
60	O=C(C1CC(=O)N(C2CCCCC2)C1)N1CCOCC1 (stereo not drawn)	0.45	-0.39

(cont.)
no.	compound	AID504770	Ba CapD inh
61	CCC(CC)NC(=O)c1ccc(OCc2c(C)noc2C)c(OC)c1	-0.05	nt
62	O/N=C/c1nc(-c2ccccc2)n2ccccc12	-0.1	1.9
63	C=CCn1c(SCC(=O)Nc2ccc(S(=O)(=O)Nc3nc(C)cc(C)n3)cc2)nnc1-c1cccnc1	nt	-0.47
64	Cc1cc(C(F)(F)F)cc(N(C)NC2OC(=O)c3ccccc32)n1 (stereo not drawn)	-0.25	-0.34
65	CCc1noc(C)c1C(=O)Nc1ccc(N(C)C)cc1	1.3	nt
66	O=C(O)CN(CCN(CC(=O)O)CC(=O)O)CC(=O)O	0.1	-0.34
67	Cn1nc(NC(=O)c2ccc(CSc3ccc(Cl)cc3)o2)c2c(F)cccc21	2	-0.35
68	CCOC(=O)c1nc(C)sc1-c1ccnn1S(=O)(=O)c1cccc(Cl)c1	-0.35	-1
69	CCn1c2ccc(F)cc2c2nnc(NN)nc21	-0.4	-0.88
70	N#CC1=C(N)OC2=C(C(=O)CC(c3ccccc3)C2)C1c1ccc(Br)cc1 (stereo not drawn)	nt	-0.25
71	N=c1c(C(=O)NC2CCCCC2)cc2c(=O)n3ccccc3nc2n1Cc1cccnc1	-0.6	-0.27
72	Cc1ccc(N(CC(=O)NC2CCCC2)C(=O)c2ccc(N3CCCC3)nc2)cc1	-0.95	nt

Continued:
no.	compound	AID504770	Ba CapD inh
73	CCc1ccc(NC(=O)c2cc3c(=O)[nH]c4ccccc4c3n2C)cc1	-0.2	0.42
74	CC(O)/C=C/c1ccncc1 (stereo not drawn)	-0.75	nt
75	O=C(NCC(=O)N1CCSc2ccccc21)c1ccccc1F	-0.15	nt
76	COc1ccc(CCNc2nc3ccccc3s2)cc1OC	1.1	3.2
77	COc1ccc2cc3cc(C(=O)NCCC(C)C)sc3nc2c1	0.75	-0.03
78	CC(C)C(=O)Nc1ccc(-c2nc3ccccc3[nH]2)cc1	1.1	72
79	Cc1nc(C(F)(F)F)nc(Sc2ccccc2Cl)c1Oc1ccccc1	0.35	9.9
80	CC(C#N)OC(=O)/C=C/c1ccc2ccccc2n1 (stereo not drawn)	1.4	nt
81	COCCN1Cc2cccc(C(=O)NCc3ccco3)c2C1=O	0.5	-0.23
82	N#C/C(=C\Nc1ccc2c(c1)C(=O)OC2)C(=O)c1ccccc1	-0.65	-0.48
83	CCCc1ncc(C(=O)c2ccc(OC)cc2)n1C	-0.25	-0.67
84	Cc1ccc2c(c1)c(-c1ccccc1)c(-c1ccccc1)n2CC(O)CN1CCN(Cc2ccccc2)CC1 (stereo not drawn)	nt	5.8

Remaining list, next part:
no.	compound	AID504770	Ba CapD inh
85	CCN(CC)S(=O)(=O)c1cc(-c2cc(C(=O)NC3CC3)no2)ccc1OC	-0.85	-0.03
86	COc1ccc(-c2cc(-c3ccccc3O)nc(NC(N)=S)n2)cc1	-0.85	44
87	Fc1ccc(C=Nc2ccc(Nc3ccccc3)cc2)cc1F	0.15	-0.085
88	Cc1c(Cc2c(Cl)cccc2Cl)c(=O)ccn1Cc1cccnc1	nt	-0.14
89	OC(COc1ccc(F)cc1)(c1ccc(Cl)cc1)c1ccc(Cl)cc1	-0.8	0.24
90	Cc1ccc(NC(=O)CCn2nnc(-c3ccc(OCc4ccccc4F)cc3)n2)cc1C	-0.5	0.62
91	Cc1ccccc1NC(=O)C1CCN(C(=O)c2cc3sccc3n2Cc2ccc(F)cc2)CC1	-0.85	-1.3
92	O=S1(=O)N=C(N(Cc2ccco2)c2ccc(O)cc2)c2ccccc21	2	nt
93	OCc1ccnc(Cl)c1	0.45	-0.14
94	N#CC(C#N)=Cc1ccc(/C=C(\C#N)S(=O)(=O)c2ccccn2)cc1	-0.3	1
95	Cn1c(C(=O)O)c(CC(=O)O)c2ccccc21	0.75	1.1
96	CN(C)c1ccc(/C=N/NC(=O)CNc2ccc(Br)cc2)cc1	-0.15	7.4

Further entries
no.	compound	AID504770	Ba CapD inh
97	Cc1ccc(NC(=O)CSc2ncnc3ccccc23)cc1C	0.45	0.66
98	Cc1ccc(S(=O)(=O)c2[nH]nc3ccc(Cl)cc23)cc1	-0.25	0.83
99	N=c1c2c(F)cccc2ncn1NC(=O)c1ccncc1	-0.85	0
100	C[C@@H]1C[C@@H]([C@H](O)CC2CC(=O)NC(=O)C2)C(=O)[C@@H](C)C1	-0.45	-0.53&-0.61
101	O=C(CCN1C(=O)/C(=C/c2ccc3c(c2)OCO3)SC1=S)Nc1ccc(C(=O)O)c(O)c1	nt	-3.6
102	Cn1c(O)c(C=Nc2ccccc2)c(=O)n(C)c1=O	0.1	nt
103	Cn1c(=NC(=O)c2cccc3ccccc23)sc2cc(S(C)(=O)=O)ccc21	-0.05	0.56
104	CCOC(=O)c1c(C)[nH]c(NC(=O)Nc2nnc(CC)s2)c1C	-0.7	-0.12
105	Cc1cccc(NC(=O)C(NS(=O)(=O)c2cccs2)C(C)C)c1C (stereo not drawn)	1.2	-0.56
106	O=C(NCc1ccccc1)c1cc[n+]([O-])cc1	-0.1&-0.9	0.63&0.66
107	O=C(Nc1ccc(Cl)cc1)c1ncoc1-c1cccs1	-0.75	0.55
108	O=C(CCN1C(=O)/C(=C\c2cccc(Br)c2)SC1=S)Nc1ccc(C(=O)O)cc1	nt	-0.45

(continued)
no.	compound	AID504770	Ba CapD inh
109	O=C(NCc1cccnc1)/C(=C\c1cccc(Oc2ccccc2)c1)S(=O)(=O)c1ccccc1	-0.3	-0.71
110	CC(C)n1c(CN(C)Cc2ccccc2)nc2ccccc21	0.35	nt
111	O=C1C2=C(Nc3ccccc3SC2c2ccco2)c2ccccc21 (stereo not drawn)	nt	-0.43
112	Cc1ccc(/C=C2\CCCc3ccccc3C2=O)o1	1.2	-1.2

Compounds were not picked by outcome; 0.37% or so of the library scored in one or more.
